# Screening results from PubChem.
# PINK1 expr mod: A Quantitative High throughput Screen to Identify Chemical Modulators of PINK1 Expression | hit rate 0.2% among 410,000 | PINK1 immunofluorescence, high-content cytometry, 24 h | Potency, µM (top dose mostly 76.6 µM), for inactives: top-dose activation (PINK1 increase), hits mostly activators; active = well fitted activation curve with a large enough effect; inconclusive = small, poorly fitted or top-dose-only effect; inactive = flat fitted curve, though single readings scatter; cell line not stated here;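 further: potency means the concentration at half of the fitted maximal effect; % of control where 0% means no effect; nearly all actives have a fitted effect of over 65% in size; a mitochondrial uncoupler was the plate control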
#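 Cells are seeded, rested 12 hours, then given compound at five concentrations or DMSO for 24 hours. After fixation, blocking and antibody staining, PINK1 amount and mitochondrial localization are scored; CCCP serves as control.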
# Six1-Eya2 inh: qHTS Assay for Inhibitors of the Six1/Eya2 Interaction; Homeobox protein SIX1 (Homo sapiens) + Protein phosphatase EYA2 (Homo sapiens), …; AlphaScreen GST-Six1/His-Eya2 binding, biochemical; hits give low values; control for the full effect not named in the record; activity change, % (test concentration not listed); hit rate 0.56% among 360,000; in the data active = activity change below about -65%; inconclusive = about -30% to -65%; inactive = above about -30%; further: on the % scale 0 is the no-effect control and ±100 the full control effect; compound concentration not given in the record
#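 AlphaScreen with GST-Six1 and His-Eya2 (5X mix: 250 nM and 500 nM), glutathione donor and nickel acceptor beads; buffer 50 mM Tris pH 8.0, 300 mM NaCl, 1 mM TCEP; 1 h at 37 C in the dark.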
# TRPML1 inh: qHTS for Inhibitors of the Human Mucolipin Transient Receptor Potential 1 (TRPML1) | TRPML1-inducible cells, Ca2+ dye fluorescence, FDSS; hits give low values; inhibition of EC80 agonist-evoked calcium signal | hit rate 0.02% among 390,000 | activity change, negative = inhibition, % (test concentration not listed) | AID 624415, 2012; in the data active means activity change below about -50%; inconclusive means about -30% to -50%; inactive means above about -30%;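 further: stimulus is agonist 54-4 at its EC80 concentration; on the % scale 0 is the no-effect control and ±100 the full control effect; compound concentration not given in the record; the text of the record puts the active cut at -80%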
# Target sequence (Q9GZU1 whole entry, looked up): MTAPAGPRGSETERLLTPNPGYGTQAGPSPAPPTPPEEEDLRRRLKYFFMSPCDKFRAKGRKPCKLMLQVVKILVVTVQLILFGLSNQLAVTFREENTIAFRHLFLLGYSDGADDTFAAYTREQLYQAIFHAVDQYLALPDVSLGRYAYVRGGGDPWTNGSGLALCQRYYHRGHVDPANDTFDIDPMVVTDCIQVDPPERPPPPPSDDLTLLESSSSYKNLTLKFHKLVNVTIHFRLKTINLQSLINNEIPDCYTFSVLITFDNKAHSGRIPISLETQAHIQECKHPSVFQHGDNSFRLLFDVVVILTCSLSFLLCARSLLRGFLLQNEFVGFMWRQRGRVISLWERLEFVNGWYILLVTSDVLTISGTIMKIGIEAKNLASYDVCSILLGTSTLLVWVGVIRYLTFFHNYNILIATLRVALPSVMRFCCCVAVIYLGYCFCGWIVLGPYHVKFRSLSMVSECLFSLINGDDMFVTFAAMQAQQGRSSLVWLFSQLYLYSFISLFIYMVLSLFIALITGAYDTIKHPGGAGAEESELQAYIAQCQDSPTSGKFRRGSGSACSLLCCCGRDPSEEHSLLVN
#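 Calcium fluorescence in TRPML1-DL cells induced overnight with Tet: a 110 s read after compound pin addition, then a 110 s antagonist read after challenge with 54-4 at 4 uM final (EC80).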
# CtBP-E1A blk: qHTS Assay for Inhibitors of the CtBP/E1A Interaction; CtBP / adenovirus E1A interaction (AlphaScreen); AlphaScreen GST-E1A/His-CtBP binding, 1536-well; hits give low values; control for the full effect not named in the record; activity change, % (concentration not given with the values); hit rate 0.49% among 340,000; AID 651724, 2012; in the data active means activity change below about -65%; inconclusive means about -30% to -65%; inactive means above about -30%; further: on the % scale 0 is the no-effect control and ±100 the full control effect
#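 GST-E1A and His-tagged CtBP (125 nM each as 5X stock) were preincubated with pin-transferred compound for 2 h at 37 °C in the dark, then glutathione donor and nickel acceptor beads were added for 1 h before AlphaScreen reading.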
# TRPML1 agonist: qHTS for Agonists of the Human Mucolipin Transient Receptor Potential 1 (TRPML1) | activation, % (test concentration not listed) | TRPML1-expressing cells, Ca2+ dye fluorescence, FDSS; host cell line not named in the record; reference of the full effect not given here | hit rate 0.12% among 410,000; in the data active = activation above about 50%; inconclusive = about 30% to 50%; inactive = below about 30%; further: 0% is about no effect; the text of the record puts the active cut at 80%
#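 Cells: TRPML1-DL, 1X Tet inducer, ~16 h at 37 degrees C/5% CO2. Dye: ABD Ca8 no-wash + quencher, 45-90 min RT. Read: 10 s baseline, compound add, 110 s agonist phase; 54-4 EC80 (4uM final), 110 s antagonist phase.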
# D2 ag: Beta-Arrestin HTS for Positive Allosteric Modulators of the Human D2 Dopamine Receptor: Agonists; D(2) dopamine receptor (Homo sapiens), P14416; AID 624465, 2012; activation, % (test concentration not listed); DiscoveRx PathHunter D2 beta-arrestin, luminescence, 90 min; 100% = 57 uM dopamine signal; hit rate 0.084% among 360,000; in the data active = activation above about 40%; inconclusive = about 15% to 40%; inactive = below about 15%; further: compound concentration not given in the record; the text of the record calls up to 30% inactive
# Target sequence (P14416 whole entry, looked up): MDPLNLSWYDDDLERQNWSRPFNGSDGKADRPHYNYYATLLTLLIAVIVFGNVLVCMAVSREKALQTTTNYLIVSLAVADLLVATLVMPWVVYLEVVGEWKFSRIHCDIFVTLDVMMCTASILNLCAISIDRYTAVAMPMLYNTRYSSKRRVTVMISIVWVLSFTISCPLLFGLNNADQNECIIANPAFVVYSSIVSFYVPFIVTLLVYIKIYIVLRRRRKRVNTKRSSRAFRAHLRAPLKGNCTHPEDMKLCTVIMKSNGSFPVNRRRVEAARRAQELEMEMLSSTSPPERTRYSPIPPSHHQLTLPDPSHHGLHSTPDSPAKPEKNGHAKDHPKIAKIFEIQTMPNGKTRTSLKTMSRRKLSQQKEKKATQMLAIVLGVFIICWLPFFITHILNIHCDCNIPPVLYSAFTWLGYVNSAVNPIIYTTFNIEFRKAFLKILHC
#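 DiscoveRx PathHunter D2 beta-arrestin cells (2,100/well) attached overnight, then compound-stimulated 90 min at 37 C in HBSS/10 mM HEPES/0.1% Tween-20 buffer; beta-galactosidase complementation read by luminescence after 1 h at ambient temperature. Dopamine 57 uM final (EC100) as control.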
# * hit, by the source's call; u = inconclusive; x = not tested or not shown; [ ] = another dose, or the depositor's remark. Rows are unselected; overall some 1% were active at least once.
SMILES,PINK1 expr mod,Six1-Eya2 inh,TRPML1 inh,CtBP-E1A blk,TRPML1 agonist,D2 ag
Cc1ccc2ccccc2c1C(O)c1ncc(-c2ccccc2Cl)[nH]1 (stereo unspecified),0.3%,-16.6,x,-20.2,-0.4,-2.3
NC(=O)C(NN=C(c1ccccc1)c1ccccc1)c1ccccc1 (stereo unspecified),0.4%,-2.3,11.9,-4.6,1.7,-4.4
C[C@H]1CN([C@@H](C)CO)S(=O)(=O)c2ccc(Br)cc2O[C@H]1CN(C)C(=O)c1cccc(F)c1,3.0%,0.7,x,3.7,x,-1.6
Cc1ccc(C)c(NC(=O)CN2C(=O)CSc3nc(C)cc(C)c32)c1,0.6%,x,3.7,x,-1.1,x
COCCCNC(=O)CN(c1ccc(Cl)c(Cl)c1)S(C)(=O)=O,1.0%[38.3 µM],-0.7,13.9,4.6,0.4,0.8
O=C(CCNC(=O)N1CCn2c1nc1ccccc12)NCc1ccccc1Cl,1.6%,6.0,13.0,-6.6,0.9,-1.7
Cc1ccc(/C=C/C(=O)c2ccc([N+](=O)[O-])o2)cc1,6.8%,3.2,1.4,-3.8,-0.2,10.1
O=C1CC(c2nnc(Cc3c(F)cccc3Cl)o2)CN1c1ccccc1 (stereo unspecified),0.0%,x,2.5,x,1.1,x
COc1cc(S(=O)(=O)Nc2ccccc2C)ccc1NC(=O)c1ccncc1,2.1%,-0.3,-4.1,0.0,-0.9,3.5
CCC(=O)/C=C1\Sc2ccc(OC)cc2N1CC,-2.3%[38.3 µM],-12.1,4.2,-10.3,0.5,-1.7
O=C(COC(=O)c1cccc(-n2cnnn2)c1)c1ccc(Br)cc1,2.2%,-1.4,5.0,4.9,1.0,1.4
COc1cc(CN(C(=S)NCC(=O)NC2CC2)C2CCCC2)cc(OC)c1OC,-1.1%,0.9,-5.0,0.5,0.2,-6.5
CCC1CCC2(CC1)NC(=O)N(CC(=O)N1CCc3ccccc31)C2=O (stereo unspecified),6.5%,2.4,-0.5,-10.2,1.1,0.2
Cc1ccc(F)cc1NC(=O)COC(=O)COc1ccc(C#N)cc1,-2.5%,0.9,-1.8,-13.8,1.6,-1.7
Cc1cccc(CSCCNC(=O)COc2ccc(Cl)cc2)c1,-1.0%,4.2,16.8,3.2,7.1,-3.5
C/C(=N\NC(=O)c1nnn(-c2nonc2N)c1-c1ccc(Cl)c(Cl)c1)c1ccncc1,0.7%,0.0,-11.7,1.1,1.2,2.6
CCn1c2ccccc2c2cc(NC(=O)CSc3nnc(-c4cccc(F)c4)o3)ccc21,1.0%,5.9,5.2,-2.6,1.2,5.8
COc1ccccc1N1CCN(C(=O)c2ccc3c(c2)N(Cc2cc(C)ccc2C)C(=O)c2ccccc2S3(=O)=O)CC1,0.3%,x,18.4,x,0.8,x
O=C(Nc1cnc2ccccc2c1)N1CCCCC1,3.0%,6.8,-10.6,4.5,0.0,-0.5
Cc1c(O)c(CN2CCCC2)cc2c3c(c(=O)oc12)CCC3,2.7%[38.3 µM],-1.6,43.7,-9.7,1.3,-2.9

# Three compounds from above, ordered by the value under Six1-Eya2 inh, high to low.
Compound | Six1-Eya2 inh
O=C(Nc1cnc2ccccc2c1)N1CCCCC1 | 6.8
CCn1c2ccccc2c2cc(NC(=O)CSc3nnc(-c4cccc(F)c4)o3)ccc21 | 5.9
COc1cc(CN(C(=S)NCC(=O)NC2CC2)C2CCCC2)cc(OC)c1OC | 0.9

# (continued)
SMILES,PINK1 expr mod,Six1-Eya2 inh,TRPML1 inh,CtBP-E1A blk,TRPML1 agonist,D2 ag
CCOC(=O)Cn1nc(C)c2c1CCCC2=O,0.6%,6.0,-2.8,5.8,1.1,0.3
CCCNC(=O)C1(C)CCN(C(=O)c2cc(F)ccc2C)C1 (stereo unspecified),0.4%,1.2,5.0,7.4,0.3,-2.1
COC(=O)C(NS(=O)(=O)c1ccc(NC(C)=O)cc1)C(C)C (stereo unspecified),2.7%[38.3 µM],-0.2,-14.5,10.6,0.0,-0.7
NNC(=O)CCC(=O)Nc1ccccc1,-2.3%,2.9,10.3,x,-0.5,2.7
Cc1cc(C=C2C(=O)c3ccccc3C2=O)c(C)n1-c1ccc(Cl)cc1,u,-2.1,3.3,-7.9,0.6,-2.7
CN1CCN(c2ccc(S(=O)(=O)N3CCOCC3)cc2NC(=O)COc2ccc(F)cc2Cl)CC1,-0.3%,-0.8,1.3,3.6,0.4,-6.9
COc1ccc(NC(=O)c2nc(SC)ncc2Cl)cc1,0.5%,-1.9,x,0.8,x,3.6
O=C1NCCCC1C(=O)N/N=C/c1ccc([N+](=O)[O-])cc1 (stereo unspecified),1.5%,3.3,-2.1,x,-0.5,-2.3
CC(NC(=O)CSCc1ccccc1Br)c1ccccc1 (stereo unspecified),0.5%,7.1,15.9,-3.4,1.6,-4.9
COc1ccc(/C=N/NC(=O)c2cccc([N+](=O)[O-])c2)cc1OC,0.5%,-13.2,-13.2,u,3.7,1.2
CCOc1ccc(N2CC(C(=O)OCC(=O)c3ccc(OC)cc3)CC2=O)cc1 (stereo unspecified),3.6%,6.9,20.5,21.1,-1.9,-6.8
CC(Oc1ccc(Cl)cc1)C(=O)Nc1ncccn1 (stereo unspecified),0.6%[38.3 µM],0.3,21.4,4.7,-0.2,-1.4
COc1ccc(OC)c(-c2csc(NC(=O)CSc3ccccc3)n2)c1,-0.7%,-4.9,-1.4,-10.6,3.4,-1.3
CCOC(=O)N/N=C/c1c(C)c(C(=O)c2ccc(F)cc2)n2ccccc12,3.4%,3.6,8.8,-6.8,0.4,3.3
Cc1ccc(OCc2nnc(NC(=O)c3cccnc3)s2)cc1,2.1%,4.0,-10.7,x,-1.0,-2.0
COc1ccc(Cl)cc1NC(=O)CN(C)C(=O)c1cc(C)oc1C,-0.1%,-0.9,18.1,-6.1,0.1,2.4
Cc1ccc(C)c(NC(=O)c2nc(-c3ccccc3)n(-c3ccccc3)n2)c1,-3.2%,-14.7,12.5,-18.2,1.4,-2.9
Oc1ccc(C(=S)N2CCCCC2)cc1Cl,1.6%[38.3 µM],-11.3,2.6,-4.9,-0.7,-3.7
O=C(c1cc(-c2ccc(Cl)cc2Cl)on1)N1CCCC1,0.3%,-1.3,32.1,5.4,2.6,0.6
CCOc1ccc(CNCc2c(C(=O)O)n(Cc3ccc(OC)cc3)c3ccccc23)cc1,-1.1%,x,-8.1,x,0.7,x
Cn1c(NCc2ccco2)nc2c1c(=O)n(Cc1ccc(Cl)cc1Cl)c(=O)n2C,6.9%[38.3 µM],1.8,-3.5,5.8,-0.8,-2.2
CCc1ccc(C(=O)/C=C/c2cnn(C)c2C)s1,x,-0.6,26.9,5.1,0.0,-3.7
O=Cc1cnc(N2CCN(c3ccccc3)CC2)s1,0.3%,-4.5,6.9,-3.0,0.7,1.6
Cc1nonc1NC(=O)CSc1nc2ccc(Cl)cc2[nH]1,13.8%,-7.6,4.8,-1.5,1.7,2.3
COc1ccccc1Nc1nnc(SCC(=O)NC(=O)Nc2ccc3c(c2)OCCO3)s1,11.2µM*,0.9,-15.8,0.4,0.0,-3.2
O=c1[nH]c(=O)n(C2OC(CO)C(O)C2O)cc1F (stereo unspecified),3.5%,2.9,-9.6,-0.9,-0.2,1.2
Cc1ccc(-c2cc(C(F)F)n3ncc(C(=O)N4CCc5ccccc54)c3n2)cc1,0.5%,0.6,-7.0,x,1.3,-2.3
Cc1cc(N2CCCC2=O)ccc1S(=O)(=O)NCCOc1ccccc1,-1.5%,-8.5,4.1,17.2,-0.2,6.5
Fc1ccc(CNCc2cccc(Br)c2)cc1,6.3%,11.0,11.8,14.0,-0.6,-3.4
O=C(CCn1c(=O)c2sccc2n(Cc2ccc(F)cc2Cl)c1=O)NCc1ccc2c(c1)OCO2,-0.1%,x,-2.4,x,-0.6,x
COc1cc2c(cc1OC)C(c1ccc(OC)c(OC)c1OC)CC(=O)N2 (stereo unspecified),2.6%,-7.8,-20.5,5.9,-0.2,-1.3
Cn1cccc1CC(=O)NNC(=O)Nc1ccccc1F,0.1%,-1.3,25.9,-4.4,-0.6,-4.5
O=C(CN1C(=O)NC2(CCCCCC2)C1=O)c1ccc(Cl)s1,0.4%,-3.2,2.4,5.6,-0.6,2.1
O=C(NCc1cccnc1)C1CCC(CNS(=O)(=O)c2cccc3nsnc23)CC1 (stereo unspecified),-1.4%,1.2,-2.3,5.3,0.5,0.0
CC(C)C[C@H]1CN([C@@H](Cc2ccc(O)cc2)CN2CCC[C@@H]2CN2C(=S)NC[C@@H]2Cc2ccccc2)C(=S)N1CCc1ccccc1,2.3%,-9.8,8.1,-7.9,-0.5,-3.8
CC(C)CCn1c(=O)c2ccccc2n2c(CCC(=O)NC3CCN(Cc4ccccc4)CC3)nnc12,-0.3%,1.7,-4.3,2.3,-1.2,-4.0
CCS(=O)(=O)N1CCc2nc(-c3ccccc3)sc2C1,-0.9%,0.0,29.4,x,3.3,-2.1
CCC(=O)N1CCN(c2ccc(NC(=O)c3ccc(Br)o3)cc2)CC1,1.5%,-9.3,3.2,x,-0.1,7.0
COc1ccc(C(C(=O)NC2CCCCC2)N(C(=O)Cc2c[nH]c3ccccc23)c2ccccc2)cc1OC (stereo unspecified),6.1%,-5.5,6.1,12.6,1.8,-5.2
Cc1cccc(Cc2nnc(CCC(=O)N3CCCC(CN4CCOCC4)C3)o2)c1 (stereo unspecified),0.2%,1.5,5.2,11.9,0.4,9.3
CCn1c(SCC(=O)Nc2cc(C)nn2-c2ccccc2)nnc1-c1cccs1,1.2%,0.9,-5.9,-5.9,-0.8,-2.0
CCC(C)NCC(=O)Nc1cc(S(=O)(=O)N(CC)c2ccccc2)ccc1Cl (stereo unspecified),15.1%,1.0,17.3,-4.6,2.6,-2.4
Cc1ccc2[nH]c(CCN(C)C)c(CC#N)c2c1,-4.3%[38.3 µM],-1.8,-13.4,-4.9,-0.1,-0.1
CCOc1ccc2nc(N(Cc3cccnc3)C(C)=O)sc2c1,2.2%,x,-27.0,x,0.1,x
CCOC(=O)CNC(=O)CSc1nccn1Cc1ccco1,0.8%,8.7,28.9,12.1,0.8,3.3
Cc1c(C(=O)N(C)C)c2cc(Cl)ccc2n1O,-0.6%,-9.5,7.1,-10.2,-0.4,9.6
O=C1c2oc3ccccc3c(=O)c2C(c2cccc(O)c2)N1c1nncs1 (stereo unspecified),-0.3%,x,7.2,x,2.4,x
Cc1ccc2c(c1)nnn2C1CCN(CC(=O)c2ccc(Cl)cc2)CC1,0.2%,-2.5,8.1,-0.7,-0.7,-3.4
O=c1oc(-c2cccs2)nc2c1cnn2-c1ccccc1,14.5%[38.3 µM],-1.4,-10.8,6.9,0.0,-6.0
Cc1onc(-c2ccccc2Cl)c1C(=O)Nc1ccc(Br)cc1,2.0%,55.5,9.0,5.3,0.0,-3.9
